# H5N1 antiviral – MDCK cell protection from H5N1 avian flu. hit rate 0.07% among 96,000. cytopathic effect, luminescence, 72 h; hits give high values; no value below 0 was filed and about half of the inactive calls have no number; reference of the scale not given here. AID 740. inhibition, % at 50 µM; in the data active = inhibition above about 25%
# * marks the source's active call; other numbers are inactive results; i = inactive. Some of the compounds tested, so the mix of outcomes need not match the whole.
No.	Structure	H5N1 antiviral
1	O=C(C1CCCCN1S(=O)(=O)c1ccccc1)N1CCN(C(c2ccccc2)c2ccccc2)CC1 (configuration not stated)	i
2	Cn1c(SCC(=O)Nc2ccc3cn[nH]c3c2)nnc1-c1cnccn1	i
3	Cc1cccc(-c2noc(CCCC(=O)Nc3cccnc3)n2)c1	0.1
4	COC(=O)c1cc(NC(=O)CC2C(=O)NCCN2C(=O)c2ccc(F)cc2)cc(C(=O)OC)c1 (configuration not stated)	0.4
5	C/C(N)=C(/C#N)C(=O)CSc1ncnc2ccccc12	0.2
6	CC1CCCCC1NC(=O)c1ccc(N2CCCC2=O)cc1 (configuration not stated)	1.2
7	O=C(NCCc1nc2ccccc2[nH]1)Nc1ccccc1	i
8	CCOC(=O)CSc1nc2ccccc2c(=O)n1CC	1.0
9	CN(C)S(=O)(=O)N1CCC(CCCC2CCN(S(=O)(=O)N(C)C)CC2)CC1	0.7
10	CCN(CC)C(=O)c1sc(NC(=O)c2ccc3c(c2)OCO3)c(C#N)c1C	i
11	CCn1c(SCC(=O)NCc2ccccc2)nc2c(c1=O)SC(C)C2 (configuration not stated)	0.5
12	CCOC(=O)N1CCN(C(=O)CSc2nnc(-c3c[nH]c4ccccc34)n2CCOC)CC1	i
13	Cc1cc(C(C)(C)C)oc1C(=O)N(CC(=O)NC1CCCC1)Cc1ccccc1	0.4
14	O=C(NNC(=O)c1cc(-c2ccc(Cl)c(Cl)c2)nc2ccccc12)Nc1ccccc1	i
15	CCOC(=O)C(C)Sc1nc2c(c(=O)[nH]c(=O)n2C)n1C/C=C(/C)Cl (configuration not stated)	0.3
16	Cc1cc(C)c(S(=O)(=O)N(CC(=O)O)CC(=O)O)c(C)c1	0.2
17	NC(=O)c1ccsc1NC(=O)c1nc(-c2ccccc2)n(-c2ccccc2)n1	0.3
18	O=C(CSc1nnc(CNC(=O)c2c(F)cccc2Cl)o1)c1ccccc1	0.3
19	COc1cc(OC)cc(-c2nnc(SCC(=O)N(Cc3ccccc3)C(C)(C)C)o2)c1	0.9
20	Cn1c(CCN2CCCCC2)nc2cc(NS(=O)(=O)c3ccccc3)ccc21	0.1
21	O=C(CCn1c(=O)oc2ccccc21)NCCN1CCc2ccccc2C1	0.5
22	O=C(NCCCN1CCOCC1)c1ccc(CS(=O)(=O)Cc2ccccc2Cl)o1	i
23	O=S(=O)(Nc1ccc(Cc2ccncc2)cc1)c1ccc(Br)s1	3.5
24	CCOC(=O)CSc1nc2ccccc2n1CC(=O)N1CCN(c2ccccc2)CC1	i
25	Cc1sc2ncnc(-n3cnc4ccccc43)c2c1C	i
26	CCCOC(=O)c1ccc(Oc2c(-c3ccc(OC)cc3O)n[nH]c2C)cc1	1.9
27	CC1(C)CC(=O)c2c(n(-c3cccc4ccccc34)ccc2=O)C1	6.9
28	O=C1CC(Cc2ccccc2)C(=O)N1c1ccc(Cl)cn1 (configuration not stated)	0.2
29	CC1CCc2nn(CC(=O)NCCCN3CCOCC3)cc2C1 (configuration not stated)	i
30	O=C(CN1CCCC1)Nc1c2c(nc3ccccc13)N(Cc1ccccc1)CC2	i

# 3 of the compounds above, as labelled records.
22: O=C(NCCCN1CCOCC1)c1ccc(CS(=O)(=O)Cc2ccccc2Cl)o1
  H5N1 antiviral: i

23: O=S(=O)(Nc1ccc(Cc2ccncc2)cc1)c1ccc(Br)s1
  H5N1 antiviral: 3.5

24: CCOC(=O)CSc1nc2ccccc2n1CC(=O)N1CCN(c2ccccc2)CC1
  H5N1 antiviral: i

# Remaining list, next part.
No.	Structure	H5N1 antiviral
31	CCOC(=O)c1ccc2[nH]c3c(c2c1)CN(C)CC3	i
32	COc1ccccc1N1CCN(C(=O)C(C)N(c2ccc(C)c(C)c2)S(C)(=O)=O)CC1 (configuration not stated)	i
33	Cn1cc(CNC(=O)C2CCCCC2)cn1	i
34	CCOc1cc(C(=O)NCC(C)CN(C)C)cc(OCC)c1OCC (configuration not stated)	0.8
35	Cc1cccc(CCNC(=O)C2CCN(S(=O)(=O)c3c(C)nn(C)c3C)CC2)c1	0.2
36	O=C(O)c1cnc(-c2ccccc2)nc1Sc1ccccc1	0.3
37	CCc1nnc(NC(=O)CSc2nnc(Cc3ccccc3)n2-c2ccccc2)s1	0.8
38	CCN(c1nc(C)cc(OC)n1)S(=O)(=O)c1ccccc1	0.3
39	CCOC(=O)CC1C(=O)NC2CCCCC2N1C(=O)Nc1ccc(Cl)cc1 (configuration not stated)	i
40	CC(C)CNC(=O)CSc1nnc(-c2cccc(S(=O)(=O)N3CCCCC3)c2)o1	i
41	Cc1cc(-c2ccccc2)nc(SCC(=O)c2cccc([N+](=O)[O-])c2)n1	5.2
42	O=c1/c(=C/c2ccco2)sc2n1CN(c1ccccc1)CN=2	1.5
43	Cc1nc2c3ccccc3n(CC(=O)c3ccc(F)cc3)c(=O)n2n1	0.4
44	Cc1ccc(S(=O)(=O)c2c(N)n(CCC(C)C)c3nc4ccccc4nc23)cc1	4.2
45	O=C(O)C1OC(C(=O)O)C2C1C(F)(F)C2(F)F (configuration not stated)	i
46	CC(Sc1nc2ccccc2[nH]1)C(=O)Nc1ccc2c(c1)OCCO2 (configuration not stated)	i
47	Cc1cc(SCC(=O)Nc2ccccc2)nc(C)n1	i
48	CCCc1nnc(SCC(=O)O)n1/N=C/c1ccc2c(c1)OCO2	1.7
49	Cc1cc(-c2ccccc2)nc(N2CCC(C(=O)NC34CC5CC(CC(C5)C3)C4)CC2)n1	0.2
50	CCOC(=O)c1ccc(NC(=O)Nc2ccn(C)n2)cc1	i
51	CC#CCN(CC#CC)S(=O)(=O)c1ccc(S(=O)(=O)N2CCOCC2)cc1	0.1
52	O=C1CN(C(=O)COC(=O)C2=COCCO2)c2ccccc2N1	4.3
53	Cc1ccc(S(=O)(=O)Nc2ccc(NC(=O)CN3CCCCC3)c(Cl)c2)cc1	2.5
54	CCOC(=O)c1sc2nc(N3CCOCC3)c3c(c2c1N)CCC3	1.7
55	COc1ccccc1N1CCN(C(=O)C2CCN(S(=O)(=O)N3CCOCC3)CC2)CC1	0.2
56	COc1ccccc1CO/N=C/c1cccn1-c1nccc(N(C)C)c1C#N	0.5
57	CN(C)S(=O)(=O)c1ccc(N2CCCC2)c(C(=O)NCc2ccc(Cl)cc2)c1	i
58	CCN(CC)S(=O)(=O)c1ccc2c(c1)nc(CCC(=O)Nc1cccc(C(F)(F)F)c1)n2CC	4.5
59	CCOC(=O)C1CCCN(C(=O)C2CCN(S(=O)(=O)c3cccs3)CC2)C1 (configuration not stated)	1.2
60	CCn1c(SCC(=O)NCc2cccs2)nnc1-c1ccco1	i

# In a second layout: 2 of the compounds above
[48] CCCc1nnc(SCC(=O)O)n1/N=C/c1ccc2c(c1)OCO2
  H5N1 antiviral: 1.7
[49] Cc1cc(-c2ccccc2)nc(N2CCC(C(=O)NC34CC5CC(CC(C5)C3)C4)CC2)n1
  H5N1 antiviral: 0.2

# (cont.)
No.	Structure	H5N1 antiviral
61	CCOC(=O)C1=C(COc2ccc(F)cc2Cl)NC(=O)NC1c1cc(C)ccc1C (configuration not stated)	1.9
62	COc1ccc(CCN2C(=O)C3C4CC(C5C(C(=O)N/N=C\c6ccc(Cl)cc6)=NOC45)C3C2=O)cc1OC (configuration not stated)	0.6
63	CCCCN(C(=O)c1c(C)[nH]c(C(=O)OCC)c1C)c1ccccc1	0.6
64	O=[N+]([O-])/C(=C\Nc1ccccc1Cl)S(=O)(=O)c1ccccc1	i
65	COC(=O)c1nn(C23CC4CC(CC(C4)C2)C3)c2c1C(=O)N(c1ccc(F)cc1)C2=O	i
66	CCOc1ccccc1-n1nnnc1SCC(=O)Nc1cc2oc3ccccc3c2cc1OC	0.7
67	O=C1NCCN1CCNS(=O)(=O)c1ccc2ccccc2c1	0.5
68	CC(=O)c1cc(C#N)c(SCc2ccc(F)cc2)nc1C	0.1
69	O=C(OCC1COc2ccccc2O1)c1c(F)cccc1F (configuration not stated)	i
70	COc1cccc(NC(=O)NCc2cccn2C)c1	i
71	CCc1nc(Nc2ccc3c(c2)OCCO3)c2oc3ccccc3c2n1	0.0
72	CCOC(=O)COc1ccc(C)cc1-c1ccno1	0.6
73	Cc1ccsc1C(C(=O)NC1CCCCC1)N(C(=O)c1csnn1)C1CC1 (configuration not stated)	i
74	N/C(=N\S(=O)(=O)c1ccc(Cl)s1)c1ccccc1	i
75	CCN(CC)S(=O)(=O)c1ccc(-c2nnc3sc4cccc(C)c4n23)cc1	i
76	CCOC(=O)N1N=C(c2ccccc2)CC1(O)C(F)(F)F (configuration not stated)	i
77	CCCN1C(=O)/C(=C/c2cc(C)n(C)c2C)SC1=Nc1ccc(OC)cc1	i
78	CCOc1cc(Cl)c(S(=O)(=O)NCc2ccccn2)cc1Cl	0.8
79	O=C(O)CCc1nn2cc(-c3ccccc3)nc2[nH]c1=O	0.7
80	CN1CCN(C(=O)c2ccc3ccccc3c2)CC1	1.1
81	Cc1ccc(-c2nnc3n2N=C(c2ccccc2)CS3)cc1	3.2
82	Cn1c(=O)c2c(nc(NCc3ccccc3)n2CCCc2ccccc2)n(C)c1=O	0.6
83	CN(C)c1ccc(C=NCCC2(O)CCOC(C)(C)C2)cc1 (configuration not stated)	i
84	COc1ccc(CCn2c(N)c(S(=O)(=O)c3cccs3)c3nc4ccccc4nc32)cc1OC	1.2
85	Cc1cc(-c2nnc3n2CCCCC3)c(C)n1-c1ccccc1	0.9
86	c1nc(N2CCN(Cc3ccc4c(c3)OCO4)CC2)c2[nH]cnc2n1	0.2
87	C=CCOC(=O)COc1cc(C)cc2oc(=O)c3c(c12)CCC3	1.4
88	O=C(CN1C(=O)c2ccccc2C1=O)Nc1ccc(N2CCOCC2)cc1	0.4
89	CCOCCCNC(=O)C1CCN(C(=O)Nc2ccc(C)cc2)CC1	i
90	O=C(CSc1nnc(-c2ccc(F)cc2)o1)Nc1ccc(S(=O)(=O)N2CCCC2)cc1	i

# Among those listed so far, 5 have a COOH group.
No.	Structure	H5N1 antiviral
16	Cc1cc(C)c(S(=O)(=O)N(CC(=O)O)CC(=O)O)c(C)c1	0.2
36	O=C(O)c1cnc(-c2ccccc2)nc1Sc1ccccc1	0.3
45	O=C(O)C1OC(C(=O)O)C2C1C(F)(F)C2(F)F (configuration not stated)	i
48	CCCc1nnc(SCC(=O)O)n1/N=C/c1ccc2c(c1)OCO2	1.7
79	O=C(O)CCc1nn2cc(-c3ccccc3)nc2[nH]c1=O	0.7

# (next part)
No.	Structure	H5N1 antiviral
91	CCOC(=O)C(=O)Nc1ccc(S(=O)(=O)Nc2ncccn2)cc1	0.8
92	CCSc1nnc(NC(=O)Cc2ccc(OC)c(OC)c2)s1	i
93	N#CC(c1ccc(F)cc1)c1ccc(C(=O)c2ccccc2)cc1 (configuration not stated)	0.2
94	COc1cccc(OCCCCCCN2CCOCC2)c1	0.2
95	O=C1S/C(=C/c2ccc(N3CCOCC3)o2)C(=O)N1Cc1ccc(F)cc1	0.2
96	COc1ccc2c(c1OC)C(=O)N1c3ccccc3C(=O)N(c3ccccc3F)C21 (configuration not stated)	i
97	CCOC(=O)CC(=O)CSCC(=O)Nc1ccc(C)cc1	0.5
98	Cc1nn(-c2ccccc2)c(C)c1C(=O)OCC(=O)N1CC(=O)Nc2ccccc21	0.5
99	COc1cc(/C=N/NC(=O)c2cccs2)ccc1OCc1ccccc1	2.5
100	COc1ccccc1-c1cc(C(=O)NCc2ccccc2)no1	i
101	Cc1ccc(-n2c(SCC(=O)NCC3CCCO3)nc3c(c2=O)SCC3)cc1 (configuration not stated)	0.5
102	Cc1cccc(-c2cc3nc4c(c(N5CCOCC5)n3n2)CCCC4)c1	2.4
103	C=CCOc1cccc(C2C(C(=O)c3ccco3)=C(O)C(=O)N2Cc2ccncc2)c1 (configuration not stated)	0.7
104	CCOC(=O)c1cnc2cc(-c3ccc(Cl)cc3)nn2c1N	0.8
105	C=CCNC(=O)CC(C)C(CCCCC)C(=O)O (configuration not stated)	i
106	Cc1cc(C)nc(SCC(=O)Nc2ccc(S(=O)(=O)N3CCCCC3)cc2)n1	0.9
107	CN1CCN(c2ccccc2NC(=O)c2ccc(Br)o2)CC1	0.6
108	Cc1cc(=O)oc2cc(OCC#N)ccc12	3.4
109	Cc1ccccc1Cn1c(-c2cncs2)nc2ccccc21	i
110	COCCCN(C(C)=O)c1nc(-c2ccccc2)cs1	0.5
111	Cc1cc2c(cc1C)NC(c1nc3ccccc3[nH]1)C1=C(CC(C)(C)CC1=O)N2 (configuration not stated)	i
112	Cc1nc2ccccc2n1CCc1nc2c3ccccc3nc(SCC(=O)NCc3ccco3)n2n1	0.8
113	O=[N+]([O-])c1nn(-c2ccc3c(c2)OCCO3)n(O)c1=NCCCO	i
114	Cc1ccc(OCCCCn2ccnc2)c(Cl)c1	0.7
115	O=C(Nc1ccc(Cl)cc1Cl)c1n[nH]c(Cn2cncn2)n1	0.6
116	O=C(CN(C(=O)CCC(=O)Nc1nccs1)c1ccc(F)cc1)NCc1ccco1	0.9
117	CC1CN=C(N(Cc2ccccc2)C(=O)Nc2ccccc2)S1 (configuration not stated)	i
118	O=C(Nc1ccccc1N1CCOCC1)c1cnccn1	3.3
119	Cc1ccc(SCc2cc(-c3ccc(Cl)cc3)no2)cc1	i
120	O=C(Nc1nnc(-c2ccc(Cl)cc2)o1)Nc1ccccc1Cl	0.4
121	COc1ccc2c(c1OC)C(=O)N(c1cccc(C(F)(F)F)c1)C2	0.1
122	COc1cccc(N2CCN(Cc3cccc(Cl)c3)CC2)c1	i
123	CCCSc1nnc(-c2c[nH]c3ccccc23)n1C	1.0
124	CCN(CC)Cc1c(C(=O)OC(C)C)nnn1-c1nonc1N	0.1
125	Cc1ccc(C(=O)CSc2nnc(CNc3ccc(C)cc3C)o2)cc1	i
126	Cc1cc(C)cc(OCC(=O)Nc2cccc(-c3nnc(-c4ccco4)o3)c2)c1	0.7
127	CCN(CC)S(=O)(=O)c1cccc(C(=O)OCC(=O)C23CC4CC(CC(C4)C2)C3)c1	11.7
128	CCCC(c1nnnn1CC1CCCO1)N1CCN(c2cc(Cl)ccc2C)CC1 (configuration not stated)	0.2
129	CC1=CCC2(CO)COC(c3ccccc3O)C1C2 (configuration not stated)	i
130	CCOC(=O)C1=C(NC(=O)c2ccc(Br)o2)Nc2ccccc2N=C1	i
131	COc1ccc(-c2cc(C(F)(F)F)n3nc(C)cc3n2)cc1	1.5

# High-throughput results from PubChem BioAssay.
